Screening results: PubChem BioAssay, National Center for Advancing Translational Sciences (NCATS)
CtBP-E1A blk – inhibitors of CtBP/E1A interaction. AlphaScreen GST-E1A/His-CtBP binding, 1536-well; active compounds read low; control for the full effect not named in the record. activity change, % (concentration not given with the values). 0.49% of 340,000 active. AID 651724; in the data active means activity change below about -65%; inconclusive means about -30% to -65%; inactive means above about -30%; further: on the % scale 0 is the no-effect control and ±100 the full control effect
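Protein mix (5X: 125 nM each GST-E1A, His-CtBP) was incubated with pinned compound 2 h at 37 deg C in dark, in 50 mM Tris pH 8.0 buffer with 300 mM NaCl. Glutathione donor and nickel acceptor beads followed; AlphaScreen signal read after 1 h.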
TRPML1 inh – blocks the human TRPML1 channel. 0.02% of 390,000 active. activity change, negative = inhibition, % (no concentration beside the values). TRPML1-inducible cells, Ca2+ dye fluorescence, FDSS; active compounds read low; inhibition of EC80 agonist-evoked calcium signal. Q9GZU1; in the data active means activity change below about -50%; inconclusive means about -30% to -50%; inactive means above about -30%;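 further: stimulus is agonist 54-4 at its EC80 concentration; on the % scale 0 is the no-effect control and ±100 the full control effect; compound concentration not given in the record; the text of the record puts the active cut at -80%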
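TRPML1-DL cells, Tet-induced overnight (~16 h, 37 °C) at 1,500 cells/well, were loaded with Ca8 no-wash dye plus quencher for 45-90 min at room temperature. Compounds were pinned during FDSS kinetic reading; agonist 54-4 at EC80 (4 uM final) then added.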
Six1-Eya2 blk – inhibitors of human Six1/Eya2 interaction; Q15475+O00167; AlphaScreen GST-Six1/His-Eya2 binding, biochemical; active compounds read low; control for the full effect not named in the record; activity change, % (concentration not given with the values); 0.56% of 360,000 active; AID 651725; in the data active = activity change below about -65%; inconclusive = about -30% to -65%; inactive = above about -30%; further: on the % scale 0 is the no-effect control and ±100 the full control effect
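GST-Six1 + His-Eya2 (5X stock: 250/500 nM); Tris pH 8.0, 300 mM NaCl, 0.05% BSA, 0.02% Tween 20; GSH donor/Ni acceptor beads; 1 h 37 °C dark; AlphaScreen readout.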
D2 PAM – positive allosteric modulators of human D2 dopamine receptor; DiscoveRx D2 beta-arrestin cells, luminescence, 90 min; 100% = 57 uM dopamine signal; potentiation, % (no concentration beside the values); 0.23% of 360,000 active; AID 624464; active = potentiation of 50% or more; inconclusive = 30% to 50%; inactive = 30% or less;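 further: compound concentration not given in the record; tested on top of an EC20 dose of dopamine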
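PathHunter beta-arrestin assay in DiscoveRx D2 cells. Compounds were added with an EC20 of dopamine (50 nM final) for 90 min at 37 deg C. Luminescence was read 1 h after detection reagent, with 57 uM dopamine as the EC100 control.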
TRPML1 agonist – activates the human TRPML1 channel. Q9GZU1. TRPML1-expressing cells, Ca2+ dye fluorescence, FDSS; host cell line not named in the record; reference of the full effect not given here. activation, % (concentration not given with the values). 0.12% of 410,000 active. AID 624414; in the data active = activation above about 50%; inconclusive = about 30% to 50%; inactive = below about 30%; further: 0% is about no effect; the text of the record puts the active cut at 80%
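In this qHTS format, compounds were pin-transferred onto Ca8-dye-loaded TRPML1-DL cells induced with Tet overnight, and intracellular Ca2+ fluorescence was recorded kinetically for 110 s after a 10 s baseline. A subsequent 4uM final 54-4 (EC80) addition followed by a second 110 s read served as the antagonist phase.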
TRPV1 PAM – potentiators of human vanilloid receptor 1 (TRPV1). Q8NER1. TRPV1-expressing cells, Fluo-8 calcium influx, capsaicin EC20 potentiation; host cell line not named in the record; control for the full effect not named in the record. potentiation, % at 8.33 µM. 0.02% of 320,000 active. AID 540277; active means potentiation above 80%; inconclusive means 30% to 80%; inactive means below 30%; further: 0% is about no effect
Target sequence (Q8NER1 whole entry, looked up): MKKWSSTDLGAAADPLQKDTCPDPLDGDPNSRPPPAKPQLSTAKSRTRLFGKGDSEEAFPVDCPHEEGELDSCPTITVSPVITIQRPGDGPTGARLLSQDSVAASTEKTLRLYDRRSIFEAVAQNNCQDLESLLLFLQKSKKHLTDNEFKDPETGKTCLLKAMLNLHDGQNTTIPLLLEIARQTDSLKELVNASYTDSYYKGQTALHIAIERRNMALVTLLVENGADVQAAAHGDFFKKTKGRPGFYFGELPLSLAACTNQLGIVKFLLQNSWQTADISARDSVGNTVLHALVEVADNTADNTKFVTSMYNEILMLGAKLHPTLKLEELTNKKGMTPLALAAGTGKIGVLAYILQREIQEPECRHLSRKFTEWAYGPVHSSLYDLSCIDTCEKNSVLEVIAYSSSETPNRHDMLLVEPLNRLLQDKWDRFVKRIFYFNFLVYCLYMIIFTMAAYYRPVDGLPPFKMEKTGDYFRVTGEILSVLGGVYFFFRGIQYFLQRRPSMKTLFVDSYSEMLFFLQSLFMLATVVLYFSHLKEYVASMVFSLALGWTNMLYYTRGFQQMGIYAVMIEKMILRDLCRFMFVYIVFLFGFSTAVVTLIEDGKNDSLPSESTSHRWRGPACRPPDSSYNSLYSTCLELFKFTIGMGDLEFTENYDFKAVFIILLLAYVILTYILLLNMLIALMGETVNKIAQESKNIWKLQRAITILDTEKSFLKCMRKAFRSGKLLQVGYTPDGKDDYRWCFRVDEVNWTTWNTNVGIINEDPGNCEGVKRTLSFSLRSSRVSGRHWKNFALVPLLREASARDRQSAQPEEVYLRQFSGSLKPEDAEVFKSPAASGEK
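Fluo-8 calcium influx in TRPV1-expressing cells, kinetic read (ex 480/em 520 nm). Compound added and read 3 min for agonist activity, followed by capsaicin at EC20 final and 2 min further read for enhancement.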
* marks the source's active call; other numbers are inactive results; ? = inconclusive; · = not tested or not shown; & = joins results of further samples.

(1) CCN(CC)c1nc(OCCNC(=O)Nc2ccccc2)nc(N(CC)CC)n1
(2) COc1ccc(-n2c(SCC(=O)Nc3ccc(C(=O)O)cc3)nnc2-c2ccccc2)cc1OC
(3) O=C(CSc1nnc(COc2ccc(F)cc2)o1)N1c2ccccc2CCc2ccccc21
(4) O=C(O)C=Cc1c[nH]c2nccnc12
(5) O=C(Nc1nncs1)C12CC3CC(CC(C3)C1)C2
(6) O=C(CCC(=O)Nc1ccccc1Cl)NNC(=O)Nc1cccc([N+](=O)[O-])c1
(7) CCC(=O)NC(Nc1nc(C)cs1)(C(=O)OC)C(F)(F)F (centres undefined)
(8) CC(=O)Nc1ccccc1NC(=O)C/C(C)=N/NC(=O)Cc1cccc2ccccc12
assay / compound,1,2,3,4,5,6,7,8
CtBP-E1A blk,1,·,6,3,6,-2,-2,-1
TRPML1 inh,13,8,14,-3,1,-7,9,-8
Six1-Eya2 blk,1,11,-3,-6,2,0,-1,-5
D2 PAM,-2,-4,-11,-4,1,-6,4,-13
TRPML1 agonist,3.0,0.1,0.5,-0.6,1.1,0.0,1.0,-0.3
TRPV1 PAM,?,?,28,·,3,18,1,-13

(9) O=C(Nc1nc(-c2ccccn2)cs1)C1COc2ccccc2O1 (centres undefined)
(10) COCCn1c(SCC(=O)Nc2ccc(OC)cc2)nnc1-c1ccoc1C
(11) CN1C(=O)/C(=C/C=C2\SCCN2C)OC1=S
(12) COc1cccc(C2CC(c3cccc(Br)c3)n3nc(N)nc3N2)c1 (centres undefined)
(13) CC1CC(C)CN(CCCNC(=O)c2cc3c(=O)[nH]c4ccccc4c3n2C)C1 (centres undefined)
(14) COCCn1cc(C(=O)N2CCC(C)CC2)c2c3ccccc3n(C)c2c1=O
(15) CC(=O)c1ccc(N2CCN(C(=O)c3cc(C)on3)CC2)cc1
(16) CC(C)(C)OC(=O)N[C@@H](Cc1ccccc1)C(=O)N1CCC(C(=O)NCC(=O)O)CC1
assay / compound,9,10,11,12,13,14,15,16
CtBP-E1A blk,?,-9,5,-2,·,-13,3,12
TRPML1 inh,2,5,-1,-27,17,4,11,-3
Six1-Eya2 blk,-91*,3,13,-9,-2,-13,-1,3
D2 PAM,-1,4,1,-2,-6,16,4,-4
TRPML1 agonist,-0.8,0.0,16,1.0,0.5,-0.3,0.6,-1.0
TRPV1 PAM,-2,5,0,-30,-4,-11,-3,-4

(17) O=C(Cc1c(F)cccc1Cl)Nc1ncc([N+](=O)[O-])s1
(18) CCOC(=O)c1c(C)c(C(=O)OCC)n(C)c1C
(19) Cc1ccc(-n2ccnc(SCC(=O)NC3CCCC3)c2=O)cc1Cl
(20) Cc1ccc(Cn2c(=O)cc(C(=O)O)c3ccccc32)cc1
(21) COc1ccc(OC)c(NC(=O)CN2C(=O)NC3(CCCc4ccccc43)C2=O)c1 (centres undefined)
(22) Cc1ccc(C)c(NC(=S)N/N=C/C(C)c2ccccc2)c1 (centres undefined)
(23) O=C(Nc1nccs1)c1cccc(N2C(=O)C3C4C=CC(C4)C3C2=O)c1 (centres undefined)
(24) Clc1ccccc1Cn1nnc(-c2ccccc2)n1
assay / compound,17,18,19,20,21,22,23,24
CtBP-E1A blk,·,-5,7,5,-6,3,-1,3
TRPML1 inh,8,-1,6,-6,-1,4,28,-21
Six1-Eya2 blk,5,-11,7,3,-1,-2,3,16
D2 PAM,-38,-12,-13,-7,-6,-3,-11,-3
TRPML1 agonist,1.6,0.3,-0.6,-0.2,-0.2,0.1,-0.6,-0.1
TRPV1 PAM,-9,-10,-5,12,-5,7,4,1

Excerpt, compounds 14 to 24
(14) COCCn1cc(C(=O)N2CCC(C)CC2)c2c3ccccc3n(C)c2c1=O
(15) CC(=O)c1ccc(N2CCN(C(=O)c3cc(C)on3)CC2)cc1
(16) CC(C)(C)OC(=O)N[C@@H](Cc1ccccc1)C(=O)N1CCC(C(=O)NCC(=O)O)CC1
(17) O=C(Cc1c(F)cccc1Cl)Nc1ncc([N+](=O)[O-])s1
(18) CCOC(=O)c1c(C)c(C(=O)OCC)n(C)c1C
(19) Cc1ccc(-n2ccnc(SCC(=O)NC3CCCC3)c2=O)cc1Cl
(20) Cc1ccc(Cn2c(=O)cc(C(=O)O)c3ccccc32)cc1
(21) COc1ccc(OC)c(NC(=O)CN2C(=O)NC3(CCCc4ccccc43)C2=O)c1 (centres undefined)
(22) Cc1ccc(C)c(NC(=S)N/N=C/C(C)c2ccccc2)c1 (centres undefined)
(23) O=C(Nc1nccs1)c1cccc(N2C(=O)C3C4C=CC(C4)C3C2=O)c1 (centres undefined)
assay / compound,14,15,16,17,18,19,20,21,22,23
CtBP-E1A blk,-13,3,12,·,-5,7,5,-6,3,-1
TRPML1 inh,4,11,-3,8,-1,6,-6,-1,4,28
Six1-Eya2 blk,-13,-1,3,5,-11,7,3,-1,-2,3
D2 PAM,16,4,-4,-38,-12,-13,-7,-6,-3,-11
TRPML1 agonist,-0.3,0.6,-1.0,1.6,0.3,-0.6,-0.2,-0.2,0.1,-0.6
TRPV1 PAM,-11,-3,-4,-9,-10,-5,12,-5,7,4

(24) Clc1ccccc1Cn1nnc(-c2ccccc2)n1
assay / compound,24
CtBP-E1A blk,3
TRPML1 inh,-21
Six1-Eya2 blk,16
D2 PAM,-3
TRPML1 agonist,-0.1
TRPV1 PAM,1

Following part.
(25) O=C(CNc1ccc2ccccc2c1)N/N=C/C=C/c1cccc([N+](=O)[O-])c1
(26) Cc1cccc(NCc2ccccc2O)n1
(27) Cc1c(-n2c(SCC(=O)O)nnc2-c2ccccc2Br)c(=O)n(-c2ccccc2)n1C
(28) COc1cc(NC(=O)CCNS(=O)(=O)c2ccc3c(c2)CCC(=O)N3)cc(OC)c1
(29) Cc1nn(CC(=O)NC2(C#N)CCCCC2)c(C)c1[N+](=O)[O-]
(30) CCOC(=O)c1cnn(-c2nc(SC)nc3sc4c(c23)CCC4)c1N
(31) CSc1ccc(C(=O)C2CCCN(C(=O)CCn3cncn3)C2)cc1 (centres undefined)
(32) CSc1nc(N)n2nc(-c3ccc(Cl)cc3)cc2n1
assay / compound,25,26,27,28,29,30,31,32
CtBP-E1A blk,3,-3,-8,-12,·,-3,-3,0
TRPML1 inh,-4,-2,·,-5,5,11,4,7
Six1-Eya2 blk,-9,-8,5,-8,0,-6,2,8
D2 PAM,6,2,-6,-14,-5,0,17,-6
TRPML1 agonist,-0.7,0.4,·,0.1,-0.5,0.7,0.7,-0.5
TRPV1 PAM,0,-3,17,4,-11,3,15,5

(33) CCN(CC(=O)Nc1ccc(OC)cc1)C(=O)CSCc1ccc(C)cc1
(34) O=C(/C=C/c1cn(-c2ccccc2)nc1-c1ccc2c(c1)OCCO2)NCCO
(35) Cc1ccnc(NCc2cc(Cl)cc(Cl)c2O)c1
(36) Cc1cc(=O)[nH]c2c(C)cc(S(=O)(=O)N3CCOCC3)cc12
(37) COC(=O)COc1ccc(S(=O)(=O)N2CCOCC2)cc1C
(38) CCn1c(SCC(=O)Nc2ccccc2F)nnc1-c1cnccn1
(39) CSCCNC(=O)c1ccc(OC2CCN(S(=O)(=O)N(C)C)CC2)cc1
(40) CCC(=O)N1N=C2CC(C)(C)OCC2C1c1ccccc1 (centres undefined)
assay / compound,33,34,35,36,37,38,39,40
CtBP-E1A blk,-23,6,?,7,2,2,7,-2
TRPML1 inh,26,9,9,3,-3,-17,17,-5
Six1-Eya2 blk,-1,3,?,11,7,-12,0,16
D2 PAM,-1,0,1,-3,-6,4,-2,5
TRPML1 agonist,2.0,2.1,-0.2,-0.4,-0.1,0.7,0.9,0.3
TRPV1 PAM,-11,-5,·,·,-20,-8,-2,0

An excerpt from above in order of the Six1-Eya2 blk value, high to low:
No.	Structure	Six1-Eya2 blk
36	Cc1cc(=O)[nH]c2c(C)cc(S(=O)(=O)N3CCOCC3)cc12	11
37	COC(=O)COc1ccc(S(=O)(=O)N2CCOCC2)cc1C	7
39	CSCCNC(=O)c1ccc(OC2CCN(S(=O)(=O)N(C)C)CC2)cc1	0

Next part:
(41) CCCNC(=S)NNC(=O)c1cc(C2CC2)nc2ccccc12
(42) Cc1ccccc1C(=O)NNc1ccc(-c2csnn2)cc1
(43) O=C(CCN1C(=O)/C(=C\C=C\c2ccccc2)SC1=S)Nc1cccc(C(=O)O)c1
(44) Cc1ccccc1C(=O)OCCCN=C1NS(=O)(=O)c2ccccc21
(45) COc1ccccc1NS(=O)(=O)c1cc(C(=O)NCC(c2ccc(F)cc2)N2CCOCC2)ccc1C (centres undefined)
(46) CCCCNC1=NCCS1
(47) Fc1ccccc1-c1nc(NCc2ccco2)c2ccccc2n1
(48) Cc1cccc2cc(CN(CCCO)C(=O)Nc3ccccc3Cl)c(=O)[nH]c12
assay / compound,41,42,43,44,45,46,47,48
CtBP-E1A blk,5,4,-11,-1,-20,-3,-14,-2
TRPML1 inh,-7,-22,25,0,47,-2,-9,-10
Six1-Eya2 blk,1,-1,-11,1,4,-3,0,1
D2 PAM,-15,-4,-13,-29,-13,-7,1,7
TRPML1 agonist,-0.2,0.1,-0.1,0.0,-0.8,0.0,1.7,-0.2
TRPV1 PAM,4,1,1,-20,-9,-2,-12,10

(49) CC(c1ccccc1)n1c(SCC(=O)N2CC(=O)Nc3ccccc32)nc2ccccc2c1=O (centres undefined)
(50) COc1ccccc1CNC(=O)C1CCN(C(=O)c2sccc2-n2cccc2)CC1
(51) O=C(Cn1nnc(-c2ccncc2)n1)N1CCc2ccccc21
(52) O=C(NCc1ccccc1)C(=O)NCC1OCCCN1S(=O)(=O)c1cccs1 (centres undefined)
(53) COc1ccccc1N1CCN(/N=C/c2ccc(O)c(O)c2)CC1
(54) O=C(c1ccc(S(=O)(=O)NCc2ccco2)cc1)N1CCN(Cc2ccc3c(c2)OCO3)CC1
(55) O=C(CCCCCl)Nc1c2c(nc3ccccc13)CCC2
(56) S=C(NCCc1ccccn1)Nc1cccc(Cl)c1
assay / compound,49,50,51,52,53,54,55,56
CtBP-E1A blk,-5,-7,4,1,-11,-5,-3,4
TRPML1 inh,6,1&-12,-1,22,-5,-9,8,2
Six1-Eya2 blk,-19,0,5,3,-13,-18,3,3
D2 PAM,-8,-4,2,-10,3,-18,0,-5
TRPML1 agonist,1.3,0.4&-0.2,0.6,-0.2,-0.8,-1.1,-0.4,-0.1
TRPV1 PAM,1,3,4,8,-8,-4,4,6

(57) Nc1nc(NCc2ccc(Cl)cc2)nc(NCCO)c1[N+](=O)[O-]
(58) CCc1ccc(NC(=O)CSc2ccc(-c3sc(C)nc3C)nn2)cc1
(59) COC(=O)[C@]1(Cc2ccccc2)N[C@H](c2ccc(-c3ccccc3)cc2)[C@@H]2C(=O)N(C)C(=O)[C@@H]21
(60) COc1ccc(NC(=O)c2cc(C3CCCCN3S(=O)(=O)c3ccccc3)on2)c(C)c1 (centres undefined)
(61) Cc1cccc(-c2nc(S(=O)(=O)c3ccccc3)c(N3CCOCC3)o2)c1
assay / compound,57,58,59,60,61
CtBP-E1A blk,-6,-3,-8,-7,7
TRPML1 inh,-9,45,4,-10,16
Six1-Eya2 blk,-1,-5,-11,-7,10
D2 PAM,-4,-10,-4,-10,-3
TRPML1 agonist,0.8,0.4,0.3,0.0,2.7
TRPV1 PAM,5,0,8,·,-10

Random draw from the library. About 0.95% of those tested had a hit in this group.
